Compound activity as filed in PubChem.
RecA intein inh = Mtb RecA intein splicing inhibition. 290,000 compounds, 0.75% hits. cell-free RecA intein splicing, fluorescence. P9WHJ3. inhibition, %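 (about 9 µM by stock and volumes)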; in the data active means inhibition above about 30%; inconclusive means no clear call, values can overlap the other calls;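 further: 0% = vehicle wells and 100% = reference inhibitor control wells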
Target sequence (P9WHJ3 whole entry, looked up): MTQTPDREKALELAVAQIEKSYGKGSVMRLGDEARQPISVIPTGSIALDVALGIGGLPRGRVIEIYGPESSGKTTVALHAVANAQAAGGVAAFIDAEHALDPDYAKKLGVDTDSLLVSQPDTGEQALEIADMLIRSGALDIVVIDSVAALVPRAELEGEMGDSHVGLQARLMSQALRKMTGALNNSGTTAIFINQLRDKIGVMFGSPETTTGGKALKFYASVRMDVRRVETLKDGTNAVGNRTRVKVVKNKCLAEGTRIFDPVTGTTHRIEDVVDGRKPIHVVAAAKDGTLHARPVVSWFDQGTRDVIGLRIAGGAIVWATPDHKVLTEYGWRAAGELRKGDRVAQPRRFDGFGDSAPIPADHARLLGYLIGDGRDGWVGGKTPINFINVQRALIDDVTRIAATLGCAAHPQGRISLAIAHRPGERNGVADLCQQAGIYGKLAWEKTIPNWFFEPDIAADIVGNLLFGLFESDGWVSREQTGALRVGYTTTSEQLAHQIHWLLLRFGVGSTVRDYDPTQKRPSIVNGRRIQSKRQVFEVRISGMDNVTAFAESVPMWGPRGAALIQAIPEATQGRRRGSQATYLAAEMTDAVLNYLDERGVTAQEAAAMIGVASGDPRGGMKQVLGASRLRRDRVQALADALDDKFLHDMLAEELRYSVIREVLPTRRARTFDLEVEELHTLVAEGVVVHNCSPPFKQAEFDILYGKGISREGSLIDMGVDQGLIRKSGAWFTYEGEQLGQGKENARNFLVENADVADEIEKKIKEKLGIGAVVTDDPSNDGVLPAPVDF
Arbovirus inh = arbovirus infection inhibition; 200,000 compounds, 0.37% hits; arbovirus infection cell-based antiviral screen; AID 1251; inhibition, % at 10 µM;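 active means inhibition from about 30%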;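 further: bluetongue infection of BSR cells; cell survival read as ATP light after 72 h; 0% = infected wells without compound and 100% = uninfected wells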
YopH inh = blocks Yersinia enterocolitica YopH tyrosine phosphatase. fluorescence Ex485/Em525. 140,000 compounds, 0.16% hits. AID 898. inhibition, %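 (about 10 µM by stock and volumes)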;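 active means inhibition of 50% or more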;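 further: controls were vehicle for no effect and minimum signal wells for full effect; inactives centre near -20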
Mtb bLac sens = beta-lactam sensitization of Mtb H37Rv | M. tuberculosis H37Rv growth with meropenem, percent inhibition; hits of this screen are not shown here | inhibition, % at 25 µM | 330,000 compounds, 0.27% hits;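 active means about 74% or more and at least 40 points above the plate without the antibiotic, then above 30% in a dose series; inconclusive means first-round hits that could not be retested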;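 further: growth measured after seven days incubation then overnight dye step; 0% = bacteria only wells and 100% = bacteria with antibiotic; twin plates without the antibiotic show which effects depend on it; some results filed as inactive read as strong as hits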
Mtb growth = M. tuberculosis H37Rv growth inhibitors, H37Rv strain (AID 1626). M. tuberculosis H37Rv growth inhibition; higher % means a stronger effect. inhibition, % at 10 µM; hits with a dose series show IC50 in µM. 220,000 compounds, 0.95% hits;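 active means confirmed in a dose series; inconclusive means inhibition above 80% but not taken into the dose series; inactive means below 80% or under 30% at every dose of the series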;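 further: bacteria incubated seven days before Alamar blue readout; 0% = bacteria only wells and 100% = bacteria with antibiotic wells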
The depositor's hits bear a star; ? = inconclusive; nt = no result given. The list is partial; the hit share may differ from the screen's.

SMILES	RecA intein inh	Arbovirus inh	YopH inh	Mtb bLac sens	Mtb growth
CCCCN(C(=O)CCC(=O)Nc1cc(C)on1)C(C(=O)NC1CCCC1)c1ccccc1OCC (centres undefined)	2.6	nt	nt	6	nt
Cc1ccc([N+](=O)[O-])cc1NC(=O)Nc1cccc(F)c1	3.0	nt	nt	nt	-11%
COc1ccc(C2C(C(=O)c3sc(C)nc3C)=C(O)C(=O)N2CCN(C)C)cc1 (centres undefined)	-2.6	6	-6	8	0%
COc1ccc(CNC(=O)CCSCc2ccc(C)cc2)cc1	-0.1	-2	nt	4	36%
CCOC(=O)c1ccc(NC(=O)C(=O)NCc2ccncc2)cc1	-1.9	-2	-33	89	82%
Nc1nc(NCC2CCCO2)nc(Nc2cccc(F)c2)c1[N+](=O)[O-] (centres undefined)	-3.0	nt	nt	0	-16%
CCC1(C(=O)OC)NC(c2ccccc2OC)C2C(=O)N(C)C(=O)C21 (centres undefined)	0.4	3	0	2	-12%
COc1cccc(N2CCN(S(=O)(=O)c3ccc4c(c3)NC(=O)CS4)CC2)c1	2.3	nt	nt	-1	nt
CCN(CC)c1ccc(NC(=O)Cn2ncc3c(C)n(Cc4ccccc4F)c(C)c3c2=O)c(C)c1	7.0	-10	-23	?	3%
CN(C)C(CNC(=O)c1ccc2c(c1)S(=O)(=O)c1ccccc1C2=O)c1ccco1 (centres undefined)	-2.5	3	nt	0	-14%
CC(Sc1sc(=S)sc1SC(C)C(=O)O)C(=O)O (centres undefined)	-8.1	2	9	5	-5%
CN(CC(=O)NC1CCCCCC1)S(=O)(=O)c1ccc2c(c1)n(C)c(=O)c(=O)n2C	0.1	-4	-30	-3	-4%
Cc1ccc(S(=O)(=O)N2CCCC2CNC(=O)c2ccc3c(c2)OCO3)cc1 (centres undefined)	-2.0	nt	nt	-1	nt
COc1ccc(CN2CCNC(=O)C2CC(=O)N2CCCN(C(C)=O)CC2)c(OC)c1 (centres undefined)	0.0	nt	nt	7	nt
CC(C)c1cc(C(F)(F)F)n2nc(C(=O)O)cc2n1	1.3	3	21	-8	79%

The list goes on, overlapping the part above by 6 compounds.
SMILES	RecA intein inh	Arbovirus inh	YopH inh	Mtb bLac sens	Mtb growth
CN(C)C(CNC(=O)c1ccc2c(c1)S(=O)(=O)c1ccccc1C2=O)c1ccco1 (centres undefined)	-2.5	3	nt	0	-14%
CC(Sc1sc(=S)sc1SC(C)C(=O)O)C(=O)O (centres undefined)	-8.1	2	9	5	-5%
CN(CC(=O)NC1CCCCCC1)S(=O)(=O)c1ccc2c(c1)n(C)c(=O)c(=O)n2C	0.1	-4	-30	-3	-4%
Cc1ccc(S(=O)(=O)N2CCCC2CNC(=O)c2ccc3c(c2)OCO3)cc1 (centres undefined)	-2.0	nt	nt	-1	nt
COc1ccc(CN2CCNC(=O)C2CC(=O)N2CCCN(C(C)=O)CC2)c(OC)c1 (centres undefined)	0.0	nt	nt	7	nt
CC(C)c1cc(C(F)(F)F)n2nc(C(=O)O)cc2n1	1.3	3	21	-8	79%
CCc1ccccc1NC(=O)Cn1cccc1C1=NC(c2ccccc2)CO1 (centres undefined)	1.4	-12	-10	-2	-3%
COc1cc(C(=O)O/N=C(\N)c2ccc([N+](=O)[O-])cc2)cc(OC)c1OC	1.2	-24	-2	20	4%
Cc1ccc(NC(=O)c2ccc3ncsc3c2)cc1S(=O)(=O)N(C)C	7.5	nt	nt	37	5%
Cc1ccc(C(=O)Nc2ccc(F)cc2F)o1	-0.5	8	-1	23	-8%
Cc1cc2cc3c(cc2nc1SCc1ccc(C(=O)O)cc1)OCCO3	-2.7	13	-32	0	1%
Cc1cccc(NC(=O)CCS(=O)(=O)c2ccc(Cl)cc2)c1	0.0	nt	nt	-4	nt
CCN(CC)CCCN1C(=O)C(=O)/C(=C(/O)c2ccc(C)cc2)C1c1ccccn1 (centres undefined)	2.5	-2	-3	-2	-3%
C/C(=N\OCC(=O)Nn1c(C)nc2ccccc2c1=O)c1ccccc1	-4.4	-11	-20	-7	1%
NC(=O)N=Nc1c(O)[nH]c2c(Br)cc(Br)cc12	-1.8	-3	nt	-13	0%
O=C(NNS(=O)(=O)c1ccc(F)cc1)C1CCN(Cc2cccc(F)c2)CC1	-2.2	12	nt	-4	4%
O=C(Nc1ncccc1O)c1cccc(S(=O)(=O)N2CCc3ccccc32)c1	nt	0	15	10	-10%
CC(=O)Nc1ccc(NC(=O)CN2C(=O)COc3ccc(S(=O)(=O)N4CCOCC4)cc32)cc1	1.9	nt	nt	0	nt
CCn1c(O)c(N=NC(=O)c2cccc(S(=O)(=O)N3CCCCC3)c2)c2ccccc21	2.1	-14	-11	0	78%
CCOC(=O)N1CCC(NC(=O)c2ccc(CS(=O)c3ccc(Cl)cc3)o2)CC1 (centres undefined)	-1.0	nt	nt	3	nt
O=C(COC(=O)c1ccc(F)cc1)NCCCc1ccccc1	-1.2	nt	nt	-3	nt
CC(=O)Nc1cccc(Oc2ncnc3scc(-c4ccccc4)c23)c1	3.6	45*	-17	13	2%
Nc1nonc1-n1nnc(C(=O)N/N=C/c2cc(Br)cs2)c1-c1ccccc1	-3.1	nt	nt	-2	nt
CC(C)c1nc(CNC(=O)CC2C(=O)NCCN2Cc2ccoc2)cs1 (centres undefined)	0.5	6	nt	-8	4%
CC(c1ccccc1)n1c(SCC(=O)Nc2ccccc2)n[nH]c1=O (centres undefined)	-2.5	nt	nt	-4	nt
O=C(NCCC1=CCCCC1)C(=O)NCc1ccccc1	-2.7	0	-20	12	9%
CN1C(C(=O)Nc2ccc(OC(F)(F)F)cc2)=CC(c2cccs2)=NS1(=O)=O	-6.7	nt	nt	1	nt
CCCOC(=O)C1[C@H]2C(=O)N(CC3CCCO3)C[C@]23C=C[C@H]1O3 (some centres undefined)	-3.5	4	-56	-2	7%
COc1ccc(/C=C/C(=O)O)cc1Cl	3.6	nt	nt	0	-6%
O=C1NCCNC1(c1c[nH]c2ccccc12)C(F)(F)F (centres undefined)	-0.5	-7	-55	0	63%
CC/S(=N\S(=O)(=O)c1ccc(C)cc1)c1ccccc1 (centres undefined)	-1.8	nt	nt	2	-11%
Cc1cc(-c2ccccc2)nc(N(C)NC(=O)C(C)(C)C)c1S(C)(=O)=O	-0.4	-2	nt	-6	6%
CCC(C)NC(=O)CSc1nc2scc(-c3ccccc3)c2c(=O)[nH]1 (centres undefined)	-7.4	12	-12	-2	-3%
CC(CNC(=O)c1ccc(C#N)cc1)NC(=O)c1ccc(C#N)cc1 (centres undefined)	-0.5	nt	nt	-4	nt
COc1ccc(Cl)cc1NC(=O)C1Cc2ccccc2CN1S(C)(=O)=O (centres undefined)	2.2	nt	nt	-14	nt
C/C(Nc1ccccc1)=C(/C#N)C(N)=O	1.2	5	-6	0	1%

Given with bars between the fields: part of the list above
Structure | RecA intein inh | Arbovirus inh | YopH inh | Mtb bLac sens | Mtb growth
CCC(C)NC(=O)CSc1nc2scc(-c3ccccc3)c2c(=O)[nH]1 (centres undefined) | -7.4 | 12 | -12 | -2 | -3%
CC(CNC(=O)c1ccc(C#N)cc1)NC(=O)c1ccc(C#N)cc1 (centres undefined) | -0.5 | nt | nt | -4 | nt

More records:
SMILES	RecA intein inh	Arbovirus inh	YopH inh	Mtb bLac sens	Mtb growth
CSCCC(NC(=O)c1ccc(Cl)cc1Cl)C(=O)OCC(N)=O (centres undefined)	-1.3	nt	nt	-6	-2%
O=c1[nH]c2ccccc2nc1/C=C(\O)C(F)F	-4.2	1	-29	5	-4%
COc1cccc2sc(Nc3nc(-c4cc5ccccc5oc4=O)cs3)nc12	-2.1	6	-27	1	nt
COc1ccc(-n2ccn3c(CCC(=O)N4CCN(c5cccc(C)c5C)CC4)nnc3c2=O)cc1	-1.6	nt	nt	0	nt
CCOP(=O)(OCC)C(NC(=O)NC)C(N)=O (centres undefined)	0.9	nt	nt	-2	15%
CCOc1cccc(CNn2cnnc2)c1OCc1ccccc1Cl	-1.6	-1	-4	2	-2%
CCCCSc1nnc(CNC(=O)C23CC4CC(CC(C4)C2)C3)n1Cc1ccccc1	-0.1	-5	-23	2	nt
C/C(=N\NC1=NCCN1)c1ccc(Cl)cc1	-1.7	nt	nt	-4	4%
Cc1cc(NC(=O)CC(C)C)c(=O)n(Cc2cccc(F)c2)c1	0.1	nt	nt	-1	nt
O=C(C1CC1)N1CCN=C1SCc1ccccc1Cl	nt	-15	-7	1	-8%
O=[N+]([O-])c1cc(S(=O)(=O)N2CCCCCC2)ccc1Cl	nt	-1	nt	nt	12%
CC(C)Cc1cc(C(=O)N2CCCC(CO)(Cc3ccc(F)cc3F)C2)n[nH]1 (centres undefined)	1.6	nt	nt	-5	nt
COc1ccccc1NC(=O)C(C)OC(=O)CC1CCCC1 (centres undefined)	0.5	nt	nt	5	nt
COc1cc2c(cc1OC)CN(C(=S)Nc1ccc(Cl)cc1)CC2	nt	nt	nt	-5	0%
Cc1nc(C(=O)Nc2ccc(Cl)cc2)sc1C1(C)CC(c2cccc([N+](=O)[O-])c2)=NO1 (centres undefined)	-1.5	nt	nt	-7	0%
O=C(CSc1nc2ccccc2nc1SCC(=O)N1CCOCC1)N1CCOCC1	32*	2	15	-20	-6%
O=C(N/N=C\c1coc2ccccc2c1=O)c1ccco1	6.6	nt	nt	-2	4%
O=[N+]([O-])c1ncn(Cc2ccccc2Cl)n1	7.3	8	-26	4	3%
O=C(O)CC(c1cccc(Cl)c1)n1cccc1 (centres undefined)	1.9	15	-7	1	7%
O=C(Nc1ccc2c(c1)OCO2)N1CCN(C/C=C/c2ccccc2)CC1	2.7	-11	-13	-6	3%
CC(=O)C1=C(Nc2ccc(C)cc2)CC(C)(O)C(C(C)=O)C1c1ccco1 (centres undefined)	-0.7	8	-25	-3	2%
COc1ccc(NC(=O)CSc2ccc3nnc(-c4ccccn4)n3n2)cc1	-4.1	nt	nt	?	nt
C=CCOc1ccc(/C=C2\SC(N3CCCCC3)=NC2=O)cc1	4.4	nt	nt	4	nt
COc1ccc(-c2cc(C(=O)NN)[nH]n2)cc1	0.1	-1	-27	-4	-2%
CC1CC2C3CCC4=CC(=O)C=CC4(C)C3(F)C(O)CC2(C)C1(O)C(=O)CO (centres undefined)	-5.5	nt	nt	2	3%
Cc1cc(/C=N/NC(=O)CC#N)c(C)n1-c1ccc([N+](=O)[O-])cc1	0.4	4	nt	nt	16%
COc1ccc(NC(=O)CN(c2ccccc2F)S(=O)(=O)c2ccc(C)cc2)c(OC)c1	3.4	nt	nt	2	nt
COc1cccc(N2CCN(C(=S)Nc3ccccc3OC)CC2)c1	1.9	nt	nt	-4	nt
Cc1ccc(S(=O)(=O)N2CCC(C(=O)N3CCC[C@H]3C(=O)NCc3ccco3)CC2)cc1	-1.9	1	-25	-4	-7%
Cc1cccc(C)c1OCC(O)CN1CCN(c2ccccc2)CC1 (centres undefined)	4.5	7	nt	-3	4%
O=C1C(=O)N(Cc2cccnc2)C(c2cccc(O)c2)/C1=C(\O)c1ccc2c(c1)OCCO2 (centres undefined)	0.6	nt	nt	-5	nt
CCCC(=O)Nc1nnc(Sc2ccc(N(C)C)cc2)s1	0.2	-2	-7	-14	5%
O=C(CSc1nccc(=O)[nH]1)Nc1ccc(Br)c(Cl)c1	-0.6	7	-30	95	41µM*
O=c1ccc2cc3c([nH]c4ccc(Br)cc43)oc-2c1O	19	9	-22	26	-4%
CC1(C(=O)OCC(=O)NC(=O)NCc2ccccc2)CC1(Cl)Cl (centres undefined)	0.2	1	nt	3	8%
CCOc1ccc(-c2nc(C#N)c(NCc3ccc4c(c3)OCO4)o2)cc1	0.8	1	2	3	3%
Cc1cccc(C(=O)c2cnc3ccccc3c2-c2ccccc2)c1	33*	-4	-14	-4	-7%
COc1ccc(N2CC(C(=O)Nc3cc(C(F)(F)F)ccc3N3CCCC3)CC2=O)c(OC)c1 (centres undefined)	0.0	nt	nt	-1	nt
O=C(OCC(=O)N1CCN(c2ccccc2)CC1)c1cc(Cl)ccc1[N+](=O)[O-]	-2.2	nt	nt	98	nt
Cc1ccc(C(C(=O)NC(C)(C)C)N(Cc2ccccc2)C(=O)c2snc(C(N)=O)c2N)o1 (centres undefined)	0.7	15	nt	-4	6%
COc1ccc(S(=O)(=O)N(CCc2ccccc2)CC(=O)NCCCO)cc1	1.4	1	-31	-7	7%
Clc1ccc(OCc2nn3c(C4CCCCC4)nnc3s2)cc1	7.0	-18	-39	-14	4%
NC(=O)/C=C\C(=O)Nc1cccc(C(F)(F)F)c1	3.2	2	-31	-5	-13%
Cc1ccccc1C(=O)NC(=S)Nc1ccccc1[N+](=O)[O-]	0.8	1	nt	-1	11%
COc1ccc(NC(=O)CSc2nc3ccc(Nc4nc(N5CCOCC5)nc(N5CCOCC5)n4)cc3s2)cc1	1.7	nt	nt	2	nt
CC(Oc1ccc(-c2ccccc2)c(F)c1)c1ccn(S(=O)(=O)c2ccc(Cl)cc2)n1 (centres undefined)	1.4	16	-42	12	5%
CCCCCCC(N)CC(=O)O (centres undefined)	-0.8	15	-1	nt	-10%
